# Screening results as filed in PubChem BioAssay.
# Yeast UUG start – modulators of yeast start codon fidelity, primary screen, whole organism, S. cerevisiae, single point, plate reader | S. cerevisiae UUG-firefly luciferase reporter, luminescence/redox ratio | activity score, % at 18.7 µM | hit rate 0.13% among 350,000;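 active means replicate mean at a twofold rise or more, about +100% in these data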;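 further: firefly luciferase made from a UUG start codon reports start codon fidelity; reporter light over untreated wells divided by growth signal over untreated wells; some hits fall short of that in this replicate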
# CSC inhib – cancer stem cell viability inhibitors, primary screen, luminescence. cancer stem cell-like cells viability. inhibition, % at 7.5 µM. hit rate 1.1% among 300,000;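 active means mean at 75% or more and at least half the replicates too; inconclusive means mean and replicates disagree; tested in HMLE shEcad cells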;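 further: 0% = median of negative and 100% = median of positive control wells; the first replicate is given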
# PABP polyA inh – PABP poly(A) RNA binding inhibitors, primary screen, biochemical, fluorescence polarization, uHTS | hit rate 1% among 290,000 | inhibition, % at 35 µM | Polyadenylate-binding protein 1 (Homo sapiens), P11940;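 active means 50% or more with normal probe brightness, or confirmed in later tests; inconclusive means above 50% with abnormal brightness, or retests that disagree; inactive means below 50% or failed in later tests; about a fifth of its hits are not listed in these tables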;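 further: calls also rest on retests at 20 µM and on dose response follow-up; controls were probe without protein and protein plus probe with vehicle; some compounds called inactive have numbers as strong as hits; many hits fall short of the cut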
# Target sequence (P11940 whole entry, looked up): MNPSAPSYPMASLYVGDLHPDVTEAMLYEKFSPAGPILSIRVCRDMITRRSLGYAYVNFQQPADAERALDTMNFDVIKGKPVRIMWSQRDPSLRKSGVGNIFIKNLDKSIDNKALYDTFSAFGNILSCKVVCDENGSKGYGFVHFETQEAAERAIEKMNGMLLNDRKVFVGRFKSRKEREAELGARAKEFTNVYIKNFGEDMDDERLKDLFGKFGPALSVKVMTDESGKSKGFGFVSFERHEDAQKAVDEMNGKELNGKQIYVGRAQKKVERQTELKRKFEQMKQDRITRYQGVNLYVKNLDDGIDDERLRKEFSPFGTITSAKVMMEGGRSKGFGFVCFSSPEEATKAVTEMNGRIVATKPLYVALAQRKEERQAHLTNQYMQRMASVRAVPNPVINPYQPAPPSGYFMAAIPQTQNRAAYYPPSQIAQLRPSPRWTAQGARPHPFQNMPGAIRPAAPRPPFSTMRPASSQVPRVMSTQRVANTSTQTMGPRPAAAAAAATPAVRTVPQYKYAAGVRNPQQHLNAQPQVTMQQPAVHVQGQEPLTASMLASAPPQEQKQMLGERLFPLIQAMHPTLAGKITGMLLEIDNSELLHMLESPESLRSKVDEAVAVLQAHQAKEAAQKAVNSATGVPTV
# Rce1 inh – yeast Rce1p protease inhibitors, primary screen, biochemical, fluorescence, cell-free homogeneous; yeast membranes, quenched prenylated peptide cleavage fluorescence; calls only; AID 2563, 2010; CAAX prenyl protease 2 (Saccharomyces cerevisiae (strain ATCC 204508 / S288c)), Q03530; hit rate 0.27% among 290,000;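 active means fall in fluorescence gain of 50% or more versus controls, with final raw signal at or below 3038400; inconclusive means same 50% fall but final raw signal above 3038400; inactive means fall in fluorescence gain under 50%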;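 further: plate controls were neutral control wells for no effect and wells lacking membranes for full effect; tested at 10 µM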
# Target sequence (Q03530 whole entry, looked up): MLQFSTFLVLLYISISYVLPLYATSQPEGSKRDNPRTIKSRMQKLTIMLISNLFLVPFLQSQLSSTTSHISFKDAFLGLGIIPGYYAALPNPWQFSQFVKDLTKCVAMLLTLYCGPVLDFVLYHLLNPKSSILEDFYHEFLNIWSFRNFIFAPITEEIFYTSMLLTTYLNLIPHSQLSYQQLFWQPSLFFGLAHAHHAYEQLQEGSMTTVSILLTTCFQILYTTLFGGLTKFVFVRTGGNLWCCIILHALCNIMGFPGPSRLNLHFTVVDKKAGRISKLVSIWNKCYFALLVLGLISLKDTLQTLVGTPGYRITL
# MT1-MMP act inh – blockers of MT1-MMP proenzyme processing, primary screen, HT1080 RFP-PRO-GFP cells, GFP/RFP fluorescence | GFP/RFP ratio fluorescence, overnight; percent of plate control window, DMSO zero | GFP/RFP ratio change, % at 20 µM | hit rate 0.061% among 360,000 | AID 651647, 2012 | Matrix metalloproteinase-14 (Homo sapiens), P50281;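 active means GFP/RFP ratio change of at least 30% with cell ATP level not reduced by more than half and red fluorescence within 50% of control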; further: strong numbers were not always called active
#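 Read-out: GFP/RFP fluorescence ratio; Test system: RFP-PRO-GFP reporter HT1080 cells; Compound dosing: single-point 20 µM compound, 1% DMSO; Times: overnight compound exposure at 37 °C.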
# Env fusion inh – inhibitors of HIV-1 Env-driven cell-cell fusion, primary screen, HeLa-JRFL effector, CEM21 target cells, luciferase | inhibition, % at 12.3 µM | AID 651610, 2012 | hit rate 1.1% among 360,000;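 active means mean replicate inhibition score of at least 50 and every replicate individually at or above 50; inconclusive means only one of the two criteria met; inactive means mean below 50 and not all replicates reaching 50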;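 further: 0% = plate neutral controls and 100% = maraviroc near 300 nM; one replicate is shown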
# eIF4H FP inh – human eIF4H binding inhibitors, primary screen, translation initiation inhibitor project, biochemical, uHTS, fluorescence polarization. Eukaryotic translation initiation factor 4H (Homo sapiens), Q15056. eIF4H fluorescence polarization binding assay. inhibition, % at 35 µM. hit rate 0.94% among 290,000. AID 2012, 2009;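 active means 50% or more with normal probe brightness, or confirmed in later tests; inconclusive means above 50% with abnormal brightness, or retests that disagree; inactive means below 50% or failed in later tests; about a fifth of its hits are not listed in these tables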;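 further: calls also rest on retests at 20 µM and on dose response follow-up; 0% = protein and probe with vehicle and 100% = probe without protein; strong numbers were not always called active; many hits fall short of the cut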
# eIF4H FP inh retest – also measured in eIF4H FP inh; calls as there; inhibition, %; compound at 20 µM; confirmation average;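 mean of two retest wells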
# PABP polyA inh retest – second read-out of PABP polyA inh, no call of its own (marks repeat the call); inhibition, %; compound at 20 µM; confirmation repeats;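 mean of two retest wells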
# MT1-MMP act inh RFP – second read-out of MT1-MMP act inh, no call of its own (marks repeat the call); RFP signal change, %; measured here: RFP expression control read;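 0 = vehicle wells; hits needed this value within 50% of zero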
# * = called active by the depositor; i = inactive; ? = inconclusive; nt = not tested or not shown; + = active, no number; & = joins results of further samples. Only part of the results is shown, so the mix of outcomes need not match the whole.
SMILES,Yeast UUG start,CSC inhib,PABP polyA inh,Rce1 inh,MT1-MMP act inh,MT1-MMP act inh RFP,Env fusion inh,eIF4H FP inh,others
O=C1CSC(c2cccnc2)N1c1ccc(F)cc1 (stereo not given),-20,-13,0,i,-2,2,-74,1,
Cc1ccccc1C(=O)c1cccn1CC(=O)NCCCc1ccccc1,-22,0,8,i,-4,-4,14,-8,
O=C(c1ccc(Cl)cc1)c1ccc(CN2C(=O)c3ccccc3C2=O)o1,-5,-11,1,i,-5,3,-6,-5,
CCC1CCCCN1CCCNC(=O)Cn1nc(C)n2nc(-c3ccccc3)cc2c1=O (stereo not given),1,-8,6,i,6,3,7,3,
CC1CN(C(=O)Nc2ccc3snnc3c2)c2ccccc21 (stereo not given),-33,-11,-7,i,-1,5,-5,-15,
CC(=O)c1ccc(OC(=O)CCNC(=O)c2ccccc2)cc1,-14,-10,nt,nt,1,-2,7,nt,
O=C(CCNC(=O)c1ccccc1)NCC1CCCCC1,-5,4,0,i,-3,0,-34,-23,
O=c1[nH]c2ccccc2cc1-c1nnn(-c2ccc(Cl)c(Cl)c2)n1,0,-9,nt,i,3,5,-23,nt,
COc1ccc(Cl)cc1Nc1nc(C)nc2c1oc1ccccc12,nt,74,13,+,-1,-4,9,-3,
COc1ccccc1C(=O)NCCNc1nc2cc(C)cc(C)c2cc1C#N,-1,13,17,i,5,-3,10,9,
O=C(NCc1cccnc1)/C(=C\c1ccc(-c2ccc(Br)cc2)o1)S(=O)(=O)c1ccccc1,-13,10,-6,i,-14,-35,nt,-6,
O=C(CCCn1c(=S)[nH]c2cc3c(cc2c1=O)OCO3)NCCc1ccccc1Cl,-14,-14,-11,i,2,0,7,-12,
Cc1ccc2c(c1)C(c1ccc([N+](=O)[O-])cc1)=NNC(c1ccc(Br)cc1)=N2,47,14,-4,i,15,-10,-54,0,
O=C(NCc1ccco1)c1ccc(Cl)nc1,-7,8,2,i,0,0,-8,14,
O=C(Nc1ccccc1)OC1C2CCC1C(N1CCCCC1)CC2 (stereo not given),-11,13,0,i,-5,-3,nt,-1,
CC(C)CCn1c(CN2CCN(c3cccc(Cl)c3)CC2)nc2c1c(=O)n(C)c(=O)n2C,-11,26,-3,i,1,-4,-15,3,
COc1cc(C)c(Cl)cc1S(=O)(=O)NCc1ccco1,-13,-7,-5,i,7,-1,nt,2,
O=C(NC1CC1)C1=C[C@H](C2CCCCC2)C[C@H](OCCCCO)O1,-10,-9,-3,i,2,3,-30,-8,
C[C@H](CO)N1C[C@H](C)[C@H](CN(C)C(=O)Nc2cccc(F)c2)Oc2cc(C#CC3(O)CCCC3)ccc2S1(=O)=O,5&9&17,nt,nt,nt,0,3,-17,nt,
CCn1c(NCc2cccc(OC)c2OC)nc2ccccc21,-16,4,1,i,1,4,1,4,
COc1ccc(C(=O)NCC(=O)N2CC=C(c3ccccc3)CC2)cc1OC,-11,nt,nt,nt,8,1,21,nt,
CCOC(=O)N/N=C/c1cn(Cc2ccc(F)cc2)c2ccccc12,nt,-10,-4,i,6,-5,-1,-8,
CCCCNC(=O)c1cn(CC)c2ccc(S(=O)(=O)N3CCCC3)cc2c1=O,-20,8,6,i,2,0,9,-3,
O=C(NC1CCCCCC1)c1c2c(nc3ccccc13)CCN(Cc1ccccc1)C2,nt,1,49,i,-3,-1,1,85,eIF4H FP inh retest=14;PABP polyA inh retest=37
CC(C)(C)c1cc(=O)[nH]c(SCc2ccccc2Cl)n1,nt,-4,-1,i,-3,-3,13,-3,
O=C(CCc1nc2ccccc2[nH]c1=O)OCc1ccc(S(=O)(=O)N2CCOCC2)cc1,-16,-9,-9,i,1,-2,nt,-7,
CCOc1c2ccc(C(=O)NCc3cc(C(F)(F)F)cc(C(F)(F)F)c3)cc2nn1CCOC,-18,21,-2,i,6,-3,-43,0,
O=C(C1CCCO1)N1CCN(S(=O)(=O)c2ccc(F)cc2)CC1 (stereo not given),-11,-5,nt,i,-2,1,-3,nt,
CCOC(=O)c1oc2ccccc2c1COC(=O)CNC(=O)c1ccccc1OC,nt,-4,nt,i,-1,4,nt,nt,
S=C(NCc1cccnc1)Nc1ccc(Cl)c(Cl)c1,-27,-1,-4,i,12,-7,nt,2,
C=Cc1ccc(CSc2cc(C)nc3nc(C)nn23)cc1,-13,10,5,i,-1,2,-1,11,
CCOC(=O)c1ccc(NC(=O)C2CCCN(S(=O)(=O)c3ccc(F)cc3)C2)cc1 (stereo not given),3,nt,8,i,-3,-13,8,-2,
COc1ccc(NC(=O)CCSCCC(=O)Nc2ccc(OC)cc2OC)c(OC)c1,nt,8,-10,i,-2,-2,-2,-3,
COc1ccc(CCNC(=O)c2cn3ccc(C)cc3n2)cc1OC,nt,15,-2,i,1,4,0,-2,
O=C(CC1SCCNC1=O)Nc1ccc(Cl)c(Cl)c1 (stereo not given),nt,-16,0,i,0,4,24,-3,
Nc1nc(-c2ccccc2Cl)cs1,-24,nt,nt,nt,0,4,12,nt,
CCCn1c(N)c(N(CCOC)C(=O)c2ccc([N+](=O)[O-])cc2Cl)c(=O)[nH]c1=O,-11,13,-3,i,2,2,-27,-10,
CCC(C)(C)NC(=O)C(c1ccc(C)o1)N(Cc1cccs1)C(=O)Cn1nnc2ccccc21 (stereo not given),-10,-8,-8,i,-6,-8,nt,0,
COC(=O)c1ccc(Nc2nc3ccc(C)cc3n3cnnc23)cc1,-11,-6,2,i,2,3,-28,12,
C=CCNc1nc(N)c(C(=O)c2ccc3c(c2)OCO3)s1,-18,24,4,nt,-6,-8,nt,-2,
CCOCc1nnc(NC(=O)C2CC(=O)N(CCc3ccc(F)cc3)C2)s1 (stereo not given),-3,nt,1,i,2,0,-2,3,
COc1ccc(OC)c(S(=O)(=O)N2CCC(C(=O)N(C)Cc3ccccc3)CC2)c1,-8,-8,6,i,2,2,21,-4,
CCc1nc(C)cn1S(=O)(=O)c1cc(OC)c(C)cc1C,2,-4,3,?,4,4,nt,4,
COc1ccccc1CNC(=O)CNC(=O)[C@@H]1Cc2ccccc2CN1,1,-18,-8,i,1,3,5,-2,
NC(=O)c1ccccc1NC(=O)c1ccccc1S(=O)(=O)c1ccccc1[N+](=O)[O-],nt,5,1,i,4,5,25,-8,
CCCc1cc(C(=O)Nc2cccnc2Cl)no1,-20,-8,-6,i,3,-1,-12,2,
Cc1ccc(C(=O)NCC(=O)OC(C)C(=O)NCCC2=CCCCC2)cc1C (stereo not given),nt,4,-2,i,3,6,0,-6,
COc1ccc(OC)c(NC(=S)Nc2ccccc2)c1,-7,-7,-9,i,0,-4,7,-2,
CCCNC(=O)NC(=O)COC(=O)c1ccc(OC)c(S(=O)(=O)N2CCCc3ccccc32)c1,6,-4,-12,i,2,0,-15,-6,
COc1ccccc1CNS(=O)(=O)c1ccc2c(c1)oc(=O)n2C,18,-12,8,i,1,3,-7,-6,

# Later entries:
SMILES,Yeast UUG start,CSC inhib,PABP polyA inh,Rce1 inh,MT1-MMP act inh,MT1-MMP act inh RFP,Env fusion inh,eIF4H FP inh,others
COc1cc(C2C(C(=O)C(C)(C)C)=C(O)C(=O)N2Cc2ccccc2)ccc1O (stereo not given),-3,-7,1,i,2,2,10,2,
Cc1ccc(S(=O)(=O)N2CCOCC2)cc1C(=O)OCC(=O)c1ccc[nH]1,5,-12,nt,nt,-1,-1,-4,nt,
Cc1ccccc1NC(=O)COC(=O)c1ccc(CSc2ccc(Cl)cc2)cc1,3,-11,-1,i,-4,3,-23,-5,
COc1cccc(NC(=O)CN2CCN(S(=O)(=O)c3ccc(F)cc3)CC2)c1,-40,-18,-4,i,0,-1,nt,-10,
CC1CCCC(C)N1C(=O)c1ccc(S(=O)(=O)N2CCCC2)cc1 (stereo not given),-2,nt,nt,nt,-2,0,17,nt,
Oc1ccc(Br)cc1-c1cc(-c2ccccc2F)[nH]n1,-14,41,0,i,6,3,-39,-12,
Cc1c(C)n(Cc2ccccc2)c2ncnc(NCCCO)c12,nt,-1,-4,i,3,2,27,-3,
O=S(=O)(c1ccccc1)c1nc(-c2cccs2)oc1NCC1CCCO1 (stereo not given),-9,-8,9,i,-3,1,nt,-1,
CC(=O)c1cccc(NC(=O)c2ccc(Br)o2)c1,-7,4,6,i,0,3,-44,-5,
CC(Sc1nnc2ccccn12)C(=O)Nc1ncc(Cl)cc1Cl (stereo not given),-17,3,-1,i,-4,3,-297,-2,
COc1cc(NC(=O)c2cc3c(CO)cnc(C)c3oc2=Nc2cccc(C(N)=O)c2)cc(OC)c1,-13,11,4,i,-4,6,20,-6,
CCN(CC)S(=O)(=O)c1ccc(S(=O)(=O)N2CCCC2)cc1,nt,2,7,i,-2,-3,10,2,
Cc1cccc(-c2nc3ccccc3c(=O)n2NC(=S)N(C)C)c1,nt,-13,-4,i,0,8,0,-2,
COc1ccccc1NC(=S)NC1CC2CCC1C2 (stereo not given),-33,-2,-2,i,8,-2,-11,3,
CCc1ccc(OCC(=O)Nc2nnc(-c3ccco3)s2)cc1,-26,-19,-8,i,3,5,-5,21,
CN(C(=O)n1cnc2ccccc21)c1ccccc1,nt,7,-8,i,1,1,nt,-7,
O=C(NCc1ccccc1CN1CCCC1)C1CCN(S(=O)(=O)c2ccc(F)c(F)c2)CC1,-21,7,nt,nt,1,2,nt,nt,
CCOC(=O)c1[nH]c(C)c(C(=O)N2CCN(c3ccc(F)cc3)CC2)c1C,1,8,?,i,-7,-3,19,?,
O=C(O)CN1C(=O)NC2(CCc3ccccc32)C1=O (stereo not given),-12,4,0,i,-1,3,14,-3,
COc1cccc2c(C)cc(N3CCCCCC3)nc12,-11,3,-10,i,3,1,-29,-6,
O=C(COc1ccccc1)N1CCN(c2ccc([N+](=O)[O-])c(N3CCCCC3)c2)CC1,5,19,-4,nt,5,-10,nt,-6,
Cc1cnc(C)c(N2CCN(Cc3nc(-c4cccc(F)c4F)oc3C)CC2)n1,nt,-11,-3,i,-2,-2,6,0,
CCOc1ccc(N(CC(=O)NCCSCc2ccc(C)cc2)S(C)(=O)=O)cc1,-12,-1,-3,i,0,-3,47,-5,
COc1cc(OC)c2cc[nH]c2c1,nt,6,0,i,5,3,17,9,
COc1cccc(/C=N/NC(=O)C(C)n2nnc3ccccc32)c1 (stereo not given),nt,-10,34,i,3,-2,-23,-3,
CCC/S(C)=N/S(=O)(=O)c1ccc(C)cc1 (stereo not given),nt,10,7,i,0,1,9,-1,
CCn1c(C)c(C)c2cc(C(=O)NCCCN3CCOCC3)ccc21,-14,-18,1,i,8,9,-2,-6,
COc1ccc(OCC(=O)N2c3ccccc3CC2C)c([N+](=O)[O-])c1 (stereo not given),-15,-9,nt,nt,1,-3,nt,nt,
